Bioassay records from PubChem BioAssay.
Vaccinia mCherry = inhibitors of vaccinia virus infection (mCherry reporter signal); Potency, µM (highest dose often 36.5 µM), inactives show top-dose activity change, negative = inhibition, actives largely listed as inhibitors; actives 0.63% (n = 310,000); Vaccinia virus mCherry reporter infection, fluorescence; about a quarter of the inactives have no number; active = well fitted inhibition curve with a large enough effect; inconclusive = small, poorly fitted or top-dose-only effect; inactive = no such curve, though single readings can be large or run the other way; tested in A549 cells; also: nearly all actives have a fitted effect of over 35% in size; inactives centre near -10
VACV Venus inh = vaccinia inhibition (Venus reporter); Vaccinia virus Venus reporter expression, fluorescence; Potency, µM (top dose mostly 36.5 µM), for inactives: top-dose activity change, negative = inhibition, hits mostly inhibitors; actives 0.46% (n = 330,000); active means well fitted inhibition curve with a large enough effect; inconclusive means small, poorly fitted or top-dose-only effect; inactive means no such curve, though single readings can be large or run the other way; tested in A549 cells; also: nearly all actives have a fitted effect of over 30% in size; inactives centre near -10
Starred values were filed as active, the others as inactive; i = inactive; ? = inconclusive; . = not tested or not shown; & = joins results of further samples; [ ] = dose if it differs, or a comment. % is scaled to controls: 0 for no effect and ±100 for the full control effect; potency is read from the fitted curve at half-maximal effect.

A first look (five entries):
SMILES,VACV Venus inh,Vaccinia mCherry
O=C(CN1C(=O)NC2(CCOc3ccccc32)C1=O)c1ccc(Cl)cc1 (stereo not drawn),-4%,-18%
CN1/C(=C\C=O)C(C)(C)c2ccccc21,8%,11%
C=CCn1c(SCC(=O)NC2CCCCC2)nc2ccccc2c1=O,-5%,i
S=C(N/N=C/c1ccc(Cl)cc1)N1CCOCC1,-7%,i
CC(C)CNC(=O)c1[nH]c(C(F)(F)F)nc1-c1ccccc1,-10%,-7%

This part in full, from the first entry:
SMILES,VACV Venus inh,Vaccinia mCherry
O=C(CN1C(=O)NC2(CCOc3ccccc32)C1=O)c1ccc(Cl)cc1 (stereo not drawn),-4%,-18%
CN1/C(=C\C=O)C(C)(C)c2ccccc21,8%,11%
C=CCn1c(SCC(=O)NC2CCCCC2)nc2ccccc2c1=O,-5%,i
S=C(N/N=C/c1ccc(Cl)cc1)N1CCOCC1,-7%,i
CC(C)CNC(=O)c1[nH]c(C(F)(F)F)nc1-c1ccccc1,-10%,-7%
CC1CCN(C(=O)CSc2nnc(Cc3cc(=O)[nH]c(=O)[nH]3)n2-c2ccc(Cl)cc2)CC1,-4%&-1%,39%&-13%[activator]
COC(=O)c1ccc(NC(=O)n2ncc3c(C)cccc32)cc1,-4%,-4%
CCN(CC)c1ccc(NC(=O)CN2C(=O)c3cccnc3Sc3ccccc32)c(C)c1,-20%,-23%
CC(=O)Nc1cc(-c2ccc(C(=O)N3CCOCC3)cc2)cn2c(-c3cccc(C(C)=O)c3)cnc12,18%,71%[activator]
Cc1cccc(OCC(=O)NCCNC(=O)c2ccco2)c1,-1%,5%
O=c1[nH]c2ccccc2n1C1CCN(C(c2ccnc3ccccc23)c2nnnn2Cc2ccccc2)CC1 (stereo not drawn),0%,8%
O=c1nc2n(c3cc(Cl)c(S(=O)(=O)N4CCOCC4)cc13)CCCCC2,-12%,.
Cc1cccc(N(C)c2nc3ccc(C(=O)c4ccccc4)cc3n3c(C)nnc23)c1,-23%,-26%
CCOC(=O)C1CCN(S(=O)(=O)c2c(C)[nH]c(C)c2C(=O)N2CCCC2)CC1,-3%[7.34 µM],-7%[7.34 µM]
Cn1cc(CC(=O)N2CCN(c3ccc(Cl)cc3)CC2)c2ccccc21,?,.
CCn1c(=O)n(CC)c2cc(S(N)(=O)=O)c(C)cc21,-16%,-14%
O=C(CN1C(=O)c2ccccc2S1(=O)=O)Nc1ccccc1C(=O)NCc1ccco1,25%,.
COC(=O)c1c(NC(=O)CN2CCC3(O)CCCCC3C2c2cc(OC)ccc2OC)sc(C)c1C (stereo not drawn),?,-10%
CCc1ccc(NC(=O)c2ccc(NC3=NC4CS(=O)(=O)CC4S3)cc2)cc1 (stereo not drawn),-7%[7.34 µM],-18%[7.34 µM]
CC(C)COC(=O)N(C)C[C@H]1OCc2cnnn2CCCC(=O)N([C@H](C)CO)C[C@H]1C,-7%,i
O=C(NNC(=O)c1cccc([N+](=O)[O-])c1)c1ccncc1,-10%,-13%
CC(C)(C)n1cnc2cc(NS(=O)(=O)c3ccccc3)ccc21,?,.
Cc1c(C)c(C)c2[nH]c(=S)[nH]c2c1C,-10%,-12%
C=C(C)C1CC=C(C)/C(=N/NC(=O)COc2ccc(Cl)cc2)C1 (stereo not drawn),6%,-15%
Cc1ccc(-c2cn3ccc(C)cc3n2)cc1,-15%,-14%
COc1ccc([N+](=O)[O-])cc1NC(=O)C1CCCO1 (stereo not drawn),-10%,i
O=C(CSc1ncccn1)NCC1Cc2cccc(-c3ncccn3)c2O1 (stereo not drawn),-7%,-14%
C[C@@H]1[C@H](c2ccccc2)OCCS(=O)(=O)N1Cc1ccccc1,?,?
O=C1C(=O)N(CCN2CCOCC2)C(c2ccc(F)cc2)/C1=C(/O)c1ccc(S(=O)(=O)N2CCOCC2)cc1 (stereo not drawn),-10%,-17%
CC1(C)C=Cc2c(ccc(C(=O)/C=C/c3ccccc3)c2O)O1,?,-16%
CCCCNC(=O)C1(C)CCCCN1Cc1ccc(OCc2ccccc2)cc1 (stereo not drawn),-8%,13%
Cc1nn(-c2ccc(N3CCOCC3)nn2)c(C)c1CCC(=O)NCc1ccc(F)cc1,6%,-5%
O=S1(=O)CCN(Cc2ccncc2)CC1,-6%,i
O=C(CN1C(=O)CN=C(c2ccccc2)c2ccccc21)NCc1ccco1,-18%,-11%
CN1CCN(C(=O)COc2ccc(S(=O)(=O)NCc3ccccc3)cc2Cl)CC1,-7%,i
O=C(Cn1ccc(C(F)(F)F)n1)N/N=C/c1cccs1,-6%,-14%
O=C(NCCc1ccc(Cl)cc1)c1ccc2c(c1)N(Cc1ccc(F)cc1Cl)C(=O)CS2,?,-18%
COc1cc(-c2nnc(SCc3c(F)cccc3Cl)o2)cc(OC)c1OC,-28%,.
O=C(Nc1ccc(F)cc1)c1ccccc1NC(=O)C1CC=CCC1C(=O)O (stereo not drawn),18%,i
Cn1cc(S(=O)(=O)N2CCCCCC2)cc1C(=O)Nc1ccc(Cl)c(C(F)(F)F)c1,-12%,-15%
C=CCNC(=S)Nc1ccc(C(N)=O)cc1,-12%,-14%
Cc1ccc(C)c(OCCC(=O)NNC(=O)c2ccccc2)c1,-8%,-23%
CCc1ccccc1NC(=O)CCC(=O)N1CC(C)Oc2ccc(C)cc21 (stereo not drawn),-11%,-8%
Cc1ccc(CNC(=O)CSc2nc(=O)n3cccc(C)c3n2)cc1,-7%,-14%
CO[C@@H]1C=CC23c4cc5c(cc4CO[C@]2(O)CN(C)[C@H]3C1)OCO5 (stereo partly drawn),-16%,-15%
Cc1ccc(-n2c3c(cc(C(=O)NCc4ccco4)c2=O)C(=O)CC(C)(C)C3)cc1,12%,0%
CCOc1ccccc1-n1c(SCC(=O)NC)nnc1-c1ccco1,-4%,i
Cc1cc(C)cc(N(CCC#N)C(=O)CSc2n[nH]c(N)n2)c1,-18%,i
CC1(C)CC2CC(C)(CN2C(=O)COc2cccc3ccccc23)C1 (stereo not drawn),-16%,-26%
Cn1cccc1C(C(=O)NC1CCCCC1)N(C(=O)Cc1cccs1)c1ccc2c(c1)OCO2 (stereo not drawn),-13%,i
Cc1cccc(C(=O)NCC(c2ccc3c(c2)OCO3)N2CCOCC2)c1 (stereo not drawn),-3%,-5%
COc1cc2c(cc1C1NC(=S)NC(C)=C1C(=O)N(C)C)CCCC2 (stereo not drawn),-13%,-13%
CCCN1CCN(C(=O)Cn2ncc3c4ccccc4n(Cc4cccc(Cl)c4)c3c2=O)CC1,-13%,-10%
Oc1ccc(N=C/C=C/c2cccc(Br)c2)cc1-c1nc2ccccc2s1,-6%,2%
C=CCC1NS(=O)(=O)OCC1NC(=O)OCC(Cl)(Cl)Cl (stereo not drawn),-7%,i
O=C(O)COc1ccc2c3c(c(=O)oc2c1)CCC3,1%,.
Cc1cc(C)c(OCC(=O)OC(C)C(=O)NCc2ccccc2)c(C)c1 (stereo not drawn),-10%,-12%
COc1ccc(-c2csc3ncnc(N4CCN(S(=O)(=O)c5ccc(C(C)=O)cc5)CC4)c23)cc1,-27%,?
CCOc1ccccc1OCCOCCN1CCN(Cc2ccccc2)CC1,-27%,-20%
Cc1cccc(C)c1Nc1c(-c2ccccn2)nc2ccc(Cl)cn12,1%,-3%

(continued)
SMILES,VACV Venus inh,Vaccinia mCherry
CCN(CC)C(=O)COc1ccc2oc(C)c(C(=O)OC)c2c1,-16%,-2%
O=C(NC1CCCCCC1)c1ccc(CN2CCOCC2)cc1,-4%,i
CCCC(C(=O)NCc1cccc(Cl)c1)N1Cc2ccccc2C1=O (stereo not drawn),-15%,-20%
COc1ccc(CNC(=O)C(=O)NCC(c2ccco2)N2CCOCC2)cc1 (stereo not drawn),-8%,i
COC(=O)c1ccc(NC(=O)COc2ccccc2C(=O)Nc2ccccc2)cc1,-20%,-14%
CCOC(=O)N/N=C(\C)c1ccc(C)c([N+](=O)[O-])c1,-10%,-13%
CC1=CC(=O)C2C(C)(C)CCC[C@@]2(C)[C@@]1(O)CCc1ccoc1 (stereo partly drawn),0%,i
Cc1ccnc2c(Cl)cccc12,-11%,-14%
Cc1[nH]n(-c2ccc(Cl)c(Cl)c2)c(=O)c1CCO,-12%,i
CCCCCCC1CCC(C(=O)Nn2c(C)nc3ccccc3c2=O)CC1 (stereo not drawn),1%,-10%
COc1ccc2cc(CN(CCO)C(=O)c3ccc(Br)cc3)c(=O)[nH]c2c1,-20%,-13%
O=C(C1CCN(c2nnc(-n3cccc3)s2)CC1)N1CCOCC1,-2%,-22%
CC1N(C)c2cc(NC(=O)c3ccco3)ccc2C1(C)C (stereo not drawn),163%[activator],130%[activator]
COc1cc(C[C@@H](C)[C@@H](C)Cc2ccc(O)c(OC)c2)ccc1O,?,?
COc1ccc(OCC(O)Cn2c(N)nc3c2c(=O)[nH]c(=O)n3C)cc1 (stereo not drawn),-6%,-14%
O=C(c1cc2ccccc2o1)N1CCN(c2ncccn2)CC1,-14%,i
C[C@]12C(=O)N(c3ccc(Cl)cc3)C(=O)N1[C@H]1c3ccccc3OC[C@@H]1[C@H]2c1ccccc1,-15%,i
C=CCNC(=O)c1c(-c2c(F)cccc2Cl)noc1C,9%,-13%
C[C@]12CCC(=O)C(O)=C1CC[C@@H]1[C@@H]2CC[C@]2(C)C(=O)CC[C@@H]12,-11%,-14%
CC(C)(C)NC(=O)C(=O)NNC(=O)COc1ccc(Br)cc1,-14%,-11%
Cc1cccc(-n2c(-c3ccco3)nc3c(cnn3-c3ccccc3C)c2=O)c1,-12%,0%
O=C1c2ccccc2S(=O)(=O)c2cc(C(=O)N3CCN(c4ccccc4)CC3)ccc21,-3%,i
CN(C)CCn1c2c(c(SCC(=O)Nc3ccc4c(c3)OCCO4)nc1=O)CCCC2,-11%,-15%
CC(C)(C)c1cc(O)c(C(C)(C)C)cc1O,-8%[87.9 µM],-10%[87.9 µM]
Cc1ccc(CC(=O)N2CCN(S(=O)(=O)c3ccccc3)CC2)cc1C,-20%,-16%
COc1ccc(C(=O)CN2C(=O)NC3(CCCCC3)C2=O)cc1OC,1%,i
O=C1C2=C(Nc3ccccc3SC2c2ccco2)c2ccccc21 (stereo not drawn),-1%,.
COc1ccc(OC)c(NC(=O)CCNC(=O)Cn2ccc3ccccc3c2=O)c1,-10%,-7%
CC12CCC(=O)N1C(C(=O)N1CCN(c3ccc(C(F)(F)F)cc3[N+](=O)[O-])CC1)CS2 (stereo not drawn),-4%,-7%
O=C(Nc1nccs1)c1cccc(N2C(=O)c3cccc4c([N+](=O)[O-])ccc(c34)C2=O)c1,2%,.
COCCNC(=O)CN1C(=O)NC2(CCCc3ccccc32)C1=O (stereo not drawn),-13%,-5%
Cn1c(C(=O)c2ccncc2)cc2ccccc21,-25%,-9%
COc1ccc(NC(=O)CSc2nnc(C)n2Cc2ccccc2)cc1,-9%,-10%
CC(C)(O)C#Cc1ccc(C(=O)NCc2cccs2)s1,6%,-4%
COc1ccc(-n2c(SCC(=O)NCc3ccc(Cl)cc3)nc3ccsc3c2=O)cc1,-7%,-13%
Nc1cc2c(cc1[N+](=O)[O-])OCCOCCOCCO2,-18%,-10%
COC(=O)[C@]1(Cc2ccccc2)N[C@H](CN(C)C(C)=O)[C@@H]2C(=O)N(C)C(=O)[C@@H]21,-14%,-27%
COc1ccc(N2C(=O)CSC23C(=O)N(C)c2ccccc23)cc1Cl (stereo not drawn),-3%,-4%
CN(CC(=O)NCCCN1CCOCC1)S(=O)(=O)c1cc(Cl)ccc1Cl,-14%,-6%
CCc1ccc(-c2nn(CC(=O)NC3CCCC3)c3c2cnc2ccc(F)cc23)cc1,10%,1%
O=C(c1cc2nc(-c3ccco3)cc(C(F)(F)F)n2n1)N1CCCCCC1,-17%,-23%
Cc1nc(-c2ccc(C)c(S(=O)(=O)N3CCC(C(=O)NCc4ccc(Cl)cc4)CC3)c2)no1,-12%,-24%
O=C(CCSc1ccccc1)NC1CCCCCC1,-6%,-5%
OCc1ccnc(Cl)c1,-7%,-10%
CCN(Cc1ccccc1)C(=O)Cn1c(=O)n(-c2cccc(C)c2)c(=O)c2c1c1cc(C)ccc1n2C,-2%,-7%
COC(=O)C1CCN(C(=O)/C(C)=C\c2ccccc2)CC1,-7%,i
Cc1cccc(N2CCN(C(=O)Nc3ccc(F)cc3)CC2C)c1 (stereo not drawn),-5%,-16%
COc1cc(NC(=O)NC(C)c2c(-n3cccc3)sc3c2CCN(C)C3)cc(OC)c1 (stereo not drawn),-14%,-26%
COCCCn1c(=O)c2ccccc2n(CC(=O)NC2CCCCC2)c1=O,0%,-8%
COCCNc1ncnc2c1cnn2Cc1ccc(Cl)cc1,?,.
CC(=O)/C(=C\N(C)C)Sc1ccc(C)cc1,-11%,-4%
